ClpP mod: qHTS Assay for Activators of ClpP. Potency, µM (doses to about 57.5 µM), for inactives: at the top dose activity change, negative = active. hit rate 1.9% among 340,000. ATP-dependent Clp protease proteolytic subunit (Bacillus subtilis (strain 168)), P80244. AID 651965, 2013. purified B. subtilis ClpP, FRET peptide cleavage, 20 min; active = well fitted falling curve with a large enough effect; inconclusive = small, poorly fitted or top-dose-only effect; inactive = no such curve, though single readings can be large or run the other way; also: potency is read from the fitted curve at half-maximal effect; the source files actives as falling curves though it sought activators and does not explain the sign; nearly all actives have a fitted effect of over 65% in size; many hits overshoot -100%
Target sequence (P80244 whole entry, looked up): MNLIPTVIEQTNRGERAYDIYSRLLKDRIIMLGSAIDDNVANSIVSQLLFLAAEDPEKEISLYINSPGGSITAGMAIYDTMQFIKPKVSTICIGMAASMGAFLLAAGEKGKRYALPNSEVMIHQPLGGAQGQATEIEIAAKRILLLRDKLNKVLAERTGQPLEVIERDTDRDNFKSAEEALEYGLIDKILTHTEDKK
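Purified B. subtilis ClpP, 10 microg/mL final in Tris/HCl pH8 with KCl, BSA, glycerol and Tween-20, cleaved an Abz/nitrotyrosine-quenched decapeptide. Fluorescence (ex 320, em 430) was read at 0 and 20 min at room temperature. Delta was normalized to 5.8 microM ADEP and DMSO/no-enzyme controls.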
D2 potentiator: Beta-Arrestin HTS for Positive Allosteric Modulators of the Human D2 Dopamine Receptor: Potentiators; D(2) dopamine receptor (Homo sapiens), P14416; DiscoveRx D2 beta-arrestin cells, luminescence, 90 min; 100% = 57 uM dopamine signal; potentiation, % (concentration not given with the values); hit rate 0.23% among 360,000; AID 624464, 2012; active = potentiation of 50% or more; inconclusive = 30% to 50%; inactive = 30% or less;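 also: compound concentration not given in the record; tested on top of an EC20 dose of dopamine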
Target sequence (P14416 whole entry, looked up): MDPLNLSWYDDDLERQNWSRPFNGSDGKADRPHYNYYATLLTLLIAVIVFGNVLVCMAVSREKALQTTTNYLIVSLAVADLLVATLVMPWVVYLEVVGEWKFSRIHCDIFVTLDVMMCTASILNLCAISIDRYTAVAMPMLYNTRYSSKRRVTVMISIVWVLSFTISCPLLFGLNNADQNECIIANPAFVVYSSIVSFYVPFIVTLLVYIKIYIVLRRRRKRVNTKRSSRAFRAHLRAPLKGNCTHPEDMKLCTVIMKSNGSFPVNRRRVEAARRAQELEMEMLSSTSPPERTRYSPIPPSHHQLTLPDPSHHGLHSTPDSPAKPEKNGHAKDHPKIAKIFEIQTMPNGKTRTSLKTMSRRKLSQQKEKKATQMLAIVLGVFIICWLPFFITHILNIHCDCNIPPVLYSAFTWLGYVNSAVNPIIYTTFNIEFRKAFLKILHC
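D2 cells co-treated with compound plus 50 nM dopamine (EC20) for 90 min at 37 deg C to detect potentiation. Beta-arrestin recruitment was read as enzyme-fragment luminescence after 1 h at ambient temperature. Full response was set by 57 uM dopamine.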
* marks the source's active call; other numbers are inactive results. This is a subset; count on the stated rates, not on these rows.

SMILES	ClpP mod	D2 potentiator
Cc1ccc(-c2cc3nc(NCCOc4ccccc4Cl)n(C)c(=O)c3s2)cc1	-26%	-19
CC(=O)Nc1ccc(-c2ccnc3c2CC(C(=O)NCc2ccccc2)O3)cc1 (centres undefined)	5.2%	6
CC(=O)Oc1ccccc1Cn1c(C)c(C(=O)NCc2cccc([N+](=O)[O-])c2)sc1=O	-1.1%	-2
O=C(NN=Cc1cccc(O)c1O)c1ccccc1	1.9%	-6
COc1ccc(C(C)=O)cc1CN1C(=O)C(Cc2ccccc2)ON=C1c1ncccc1C (centres undefined)	0.9%	1
OC(c1ccccc1)c1nc(-c2cccc(C(F)(F)F)c2)cs1 (centres undefined)	-0.7%	-3
CCCCN(C=O)c1c(CC)nc2c(OCCC3CCCCC3)cccn12	-6.9%	-17
CCCNC(=O)C1(C)CCCN(C(=O)COc2ccc(Cl)cc2Cl)C1 (centres undefined)	-0.8%	-11
COc1ccc(C#Cc2ccc3c(c2)O[C@H](CN(C)S(=O)(=O)c2ccccc2F)[C@H](C)CN([C@H](C)CO)S3(=O)=O)cc1	4.2%	-5
CC(C)CNC(=O)C1(C)CCCN1C(=O)c1ccncc1 (centres undefined)	0.1%	9
O=C(NCc1ccco1)c1ccc2sc([C@H]3C[C@H](O)[C@@H](CO)O3)nc2c1	-2.3%	-6
OC[C@@H]1CN(CCN2CCOCC2)C[C@H](n2cnc3c(Nc4ccccc4)ncnc32)O1	0.1%	1
Fc1cccc(Cc2c(-c3ccc(Cl)cc3)nc3ccc(Br)cn23)c1	-15%	0
Cc1ccsc1CNC(=O)C1(C)CCN1C(C)C (centres undefined)	-1.6%	-6
c1ccc(-c2ccc3ncccc3n2)cc1	-13%	-3
c1ccc(CN2CC[C@@H](Nc3nccn4ccnc34)C2)cc1	-8.6%	-23
Cc1ccc(S(=O)(=O)NC(=O)C2(C)CCN2C(=O)Cc2cc(F)ccc2F)nc1 (centres undefined)	3.0%	3
CCc1nc2c(OCCOC)cccn2c1N(C)C(=O)c1ccc(C)cc1	-1.7%	-5
CC(C)C(=O)N1CCC1(C)C(=O)Nc1nc2ccccc2[nH]1 (centres undefined)	-0.9%	1
CCNC(=O)C1(C)CCCN(Cc2cc3ccccc3o2)C1 (centres undefined)	0.2%	0
CCC1Nc2ncnc(N3CCc4ccccc4C3)c2N(Cc2ccc(Br)cc2)C1=O (centres undefined)	-8.0%	-19
COc1cc(NC(=O)c2cc(-c3cc(F)ccc3OC(C)C)n[nH]2)cc(OC)c1OC	-3.7%	-4
CN(C)c1ccc(-c2ccnc3c2CC(C)(C(=O)Nc2ccc(F)c(Cl)c2)O3)cc1 (centres undefined)	4.8%	-12
O=C(Nc1ccccc1F)c1csc(COCCO)n1	-0.4%	-9

19 entries from above, arranged by length of the SMILES, lowest first.
SMILES	ClpP mod	D2 potentiator
c1ccc(-c2ccc3ncccc3n2)cc1	-13%	-3
O=C(NN=Cc1cccc(O)c1O)c1ccccc1	1.9%	-6
CC(C)CNC(=O)C1(C)CCCN1C(=O)c1ccncc1 (centres undefined)	0.1%	9
c1ccc(CN2CC[C@@H](Nc3nccn4ccnc34)C2)cc1	-8.6%	-23
OC(c1ccccc1)c1nc(-c2cccc(C(F)(F)F)c2)cs1 (centres undefined)	-0.7%	-3
CC(C)C(=O)N1CCC1(C)C(=O)Nc1nc2ccccc2[nH]1 (centres undefined)	-0.9%	1
CCc1nc2c(OCCOC)cccn2c1N(C)C(=O)c1ccc(C)cc1	-1.7%	-5
CCCNC(=O)C1(C)CCCN(C(=O)COc2ccc(Cl)cc2Cl)C1 (centres undefined)	-0.8%	-11
Fc1cccc(Cc2c(-c3ccc(Cl)cc3)nc3ccc(Br)cn23)c1	-15%	0
CC(=O)Nc1ccc(-c2ccnc3c2CC(C(=O)NCc2ccccc2)O3)cc1 (centres undefined)	5.2%	6
CCC1Nc2ncnc(N3CCc4ccccc4C3)c2N(Cc2ccc(Br)cc2)C1=O (centres undefined)	-8.0%	-19
COc1ccc(C(C)=O)cc1CN1C(=O)C(Cc2ccccc2)ON=C1c1ncccc1C (centres undefined)	0.9%	1
Cc1ccc(S(=O)(=O)NC(=O)C2(C)CCN2C(=O)Cc2cc(F)ccc2F)nc1 (centres undefined)	3.0%	3
COc1cc(NC(=O)c2cc(-c3cc(F)ccc3OC(C)C)n[nH]2)cc(OC)c1OC	-3.7%	-4
CN(C)c1ccc(-c2ccnc3c2CC(C)(C(=O)Nc2ccc(F)c(Cl)c2)O3)cc1 (centres undefined)	4.8%	-12
O=C(NCc1ccco1)c1ccc2sc([C@H]3C[C@H](O)[C@@H](CO)O3)nc2c1	-2.3%	-6
OC[C@@H]1CN(CCN2CCOCC2)C[C@H](n2cnc3c(Nc4ccccc4)ncnc32)O1	0.1%	1
CC(=O)Oc1ccccc1Cn1c(C)c(C(=O)NCc2cccc([N+](=O)[O-])c2)sc1=O	-1.1%	-2
COc1ccc(C#Cc2ccc3c(c2)O[C@H](CN(C)S(=O)(=O)c2ccccc2F)[C@H](C)CN([C@H](C)CO)S3(=O)=O)cc1	4.2%	-5

Next part.
SMILES	ClpP mod	D2 potentiator
CC(=O)c1ccc(Nc2nc(C(N)Cc3ccc(C(F)(F)F)cc3)cs2)cc1 (centres undefined)	-14%	-8
NC(Cc1ccc(C(F)(F)F)cc1)c1csc(Nc2nncc3ccccc23)n1 (centres undefined)	-5.3%	-1
COc1ccc(NC(=O)c2cc(C3CCCCN3C(=O)CCCc3ccccc3)on2)c(C)c1 (centres undefined)	-1.1%	-7
COc1cc2oc(=O)cc(CN3CCCCCCC3)c2cc1Cl	5.4%	-5
COc1cc(C(=O)N2CCCC(C)(C(=O)NS(=O)(=O)C3CC3)C2)cc(OC)c1OC (centres undefined)	-1.9%	0
COCCNc1ncnc2c1ncn2[C@H]1CN(CCc2ccccc2)C[C@@H](CO)O1	-2.0%	0
CC1(C(=O)NCc2cccs2)Cc2c(-c3ccccc3)ccnc2O1 (centres undefined)	-0.7%	-13
CCCN(CCC)Cc1cc(=O)oc2cc(OC)c(Cl)cc12	5.0%	-4
COc1ccc(-c2nc3ccc(Br)cn3c2CC(C)(C)C)cc1OC	-3.2%	-11
Cc1ccc2c(c1)N(Cc1ccccc1)C(=O)C(C)O2 (centres undefined)	1.7%	-16
CCOC(=O)C1CCCN(C(=O)c2ccc3sccc3c2)CC1 (centres undefined)	-0.9%	-1
COCCNC(=O)C1(C)CCN(C(=O)c2ccc3sccc3c2)C1 (centres undefined)	1.7%	-5
CCOC(=O)C1CCCN(C(=O)c2cc(F)ccc2C)CC1 (centres undefined)	-2.4%	-9
CCNC(=O)C1(C)CCN(Cc2ccc(C#N)cc2)C1 (centres undefined)	0.2%	-6
CCCOc1ccc(F)cc1-c1cc(C(=O)Nc2ccccc2)[nH]n1	-3.4%	-16
COCCNc1nc2cc(-c3cccc(Cl)c3)sc2c(=O)n1C	-21%	-5
O=C(Nc1ccccc1Cl)c1cc(C2CCCN(C(=O)c3cccs3)C2)on1 (centres undefined)	0.6%	7
CSc1nc(N)n2nccc2n1	-5.6%	-5
O=C(C(=Cc1ccc(F)cc1)C(=O)c1ccccc1)c1ccccc1	7.1%	-14
O=C(CC[C@H]1O[C@@H](n2cnc3c(NC(=O)c4ccccc4)ncnc32)[C@H](O)[C@@H]1O)NCC1CCCO1 (some centres undefined)	-8.3%	-7
NC(Cc1ccc(C(F)(F)F)cc1)c1csc(NC(=O)NCCc2ccccc2)n1 (centres undefined)	-1.8%	-19
COc1ccc(-c2csc(C(O)c3ccc(F)cc3)n2)cc1OC (centres undefined)	-6.4%	-9
COc1ccc(-c2csc(C(O)c3ccc(F)c(OC)c3)n2)cc1 (centres undefined)	-2.8%	-2
CCC(CC)C(=O)N(C)c1c(C)nc2c(OCCC3CCCCC3)cccn12	-5.2%	-18
CCCNC(=O)C1(C)CCCN(Cc2cccc(C#N)c2)C1 (centres undefined)	1.1%	-9
C[C@H](NC(=O)c1nc[nH]c1C(=O)N(C)CCO)c1ccccc1	-1.5%	-6
O=C(Nc1cccc2ccccc12)c1ccc2sc([C@@H]3O[C@H](CO)[C@H](O)[C@H](O)[C@H]3O)nc2c1	-3.6%	-10
CC(=O)Nc1ccc(-c2ccnc3c2CC(C(=O)Nc2cccc(C(F)(F)F)c2)O3)cc1 (centres undefined)	4.8%	1
CCCCN1CC(N2CCN(Cc3cccc(C)c3)CC2)CS1(=O)=O (centres undefined)	0.5%	-13
CC(C)C(=O)N1CCCC1(C)C(=O)Nc1ccc2c(c1)OCO2 (centres undefined)	-2.5%	-2
OC[C@@H]1CN(Cc2ccc3c(c2)OCO3)C[C@H](n2cnc3c(NC4CCC4)ncnc32)O1	0.1%	-5
COC(=O)c1cnc(NC(=O)C2(C)CCCN(C(C)=O)C2)s1 (centres undefined)	-5.0%	-16
CCCNC(=O)C1(C)CCCN(Cc2ccccc2Cl)C1 (centres undefined)	0.1%	-9
COc1ccc(NC(=O)C2(C)CCN2Cc2ccc(OC(F)(F)F)cc2)cc1OC (centres undefined)	0.6%	0
CC(C)(C)c1ccc(C(=O)N2CCOC23CCCCC3)cc1	-2.5%	-9
CCOC(=O)C1(C)CCN1C(=O)c1ccc(C)cc1 (centres undefined)	0.9%	-1
CCc1nc2c(OCc3ccc(F)c(F)c3)cccn2c1N(C)C(=O)C(C)C	-0.6%	-8
CCOc1ccccc1-c1cncc(NC)n1	4.6%	-9
COc1ccc(CNC(=O)CC[C@H]2O[C@@H](n3cnc4c(NC(=O)c5ccccc5)ncnc43)[C@H](O)[C@@H]2O)cc1	0.9%	-6
O=C(O)c1ccc(CN2C[C@@H](CO)O[C@@H](n3cnc4c(N5CCOCC5)ncnc43)C2)cc1	0.4%	-6
Nc1ncnc2c1ncn2[C@@H]1O[C@H](C(=O)NS(=O)(=O)c2cccc(F)c2)[C@@H](O)[C@H]1O	-1.7%	-2
CC(C)(C)c1ccc(CC(=O)N2CCC2(C)C(=O)NS(=O)(=O)c2cccc(OC(F)F)c2)cc1 (centres undefined)	0.1%	8
COCCNC(=O)C1CCCN(C(=O)COc2ccc(C(C)(C)C)cc2)CC1 (centres undefined)	0.8%	-1
COc1ccc(Cl)c(-c2cc(C(=O)Nc3ccccc3)[nH]n2)c1	0.0%	-19
CCCCC(=O)N(C)c1c(CC)nc2c(OCCC)cccn12	-7.3%	-6
CC(C)NC(=O)C1(C)CCCCN1Cc1cccc(C(F)(F)F)c1 (centres undefined)	1.9%	1
Cn1c(=O)c2cc(NC(=O)CCc3ccc(O)cc3)ccc2n1Cc1cccc(C(F)(F)F)c1	5.1%	1
CC(=O)c1cccc(-c2ccnc3c2CC(C(=O)NCc2ccc(N4CCN(C)CC4)cc2)O3)c1 (centres undefined)	-5.0%	-18

A few values from the results shown:
Value for `CCc1nc2c(OCc3ccc(F)c(F)c3)cccn2c1N(C)C(=O)C(C)C` in ClpP mod: -0.6%
Value for `CC(C)(C)c1ccc(CC(=O)N2CCC2(C)C(=O)NS(=O)(=O)c2cccc(OC(F)F)c2)cc1` (centres undefined) in D2 potentiator: 8

Next section:
SMILES	ClpP mod	D2 potentiator
COCCNC(=O)C1(C)CCCN(Cc2noc(-c3ccccc3OC)n2)C1 (centres undefined)	-13%	-2
CSc1ccc(CN2CCC(C)(Oc3cnc(Cl)c4ccccc34)C2)cc1 (centres undefined)	-14%	-15
CC1(C)OC(=O)C2=C(C[C@@H](C3CCCCC3)O[C@H]2c2ccc(Cl)cc2)O1	-1.0%	-8
Cc1cccc(C)c1NC(=O)CN(C)CCc1ccccc1	1.8%	-12
COCCNC(=O)C1CCCN(C(=O)c2cc(-c3cccs3)oc2C)CC1 (centres undefined)	-11%	-7
CC(=O)NCCNc1nc2cc(-c3ccccc3CO)sc2c(=O)n1C	-14%	-1
CCCC(C)(C)C(=O)N1CCC1(C)C(=O)NS(=O)(=O)c1ccc(Br)cc1 (centres undefined)	-1.2%	0
O=C(NCc1cc(Cl)cc(Cl)c1)c1ccc2sc([C@@H]3O[C@H](CO)[C@H](O)[C@H](O)[C@H]3O)nc2c1	0.1%	-11
O=C(Nc1ccc(C(O)c2ccccc2)cc1)[C@@H]1O[C@H](CO)[C@@H](O)[C@H]1O (some centres undefined)	-2.9%	-5
CCC(=O)Nc1ccc(S(=O)(=O)NC[C@H]2O[C@@H](n3cnc4c(=O)[nH]c(N)nc43)[C@H](O)[C@@H]2O)cc1	-3.3%	-3
Cc1ccc(F)c(CNC(=O)C2(C)CCCN2C(=O)C(C)C)c1F (centres undefined)	0.2%	-10
CC(C)CC(N)c1csc(Nc2ccc(C(=O)c3ccccc3)cc2)n1 (centres undefined)	-4.6%	2
COc1cc(C(O)c2nc(-c3ccncc3)cs2)ccc1F (centres undefined)	-5.6%	-6
CN(C)CCN1CCN(C2CN(Cc3ccc([N+](=O)[O-])cc3)S(=O)(=O)C2)CC1 (centres undefined)	-1.2%	-4
COc1ccc(NC(=O)c2cc(C3CCCCN3S(=O)(=O)Cc3ccccc3)on2)cn1 (centres undefined)	-0.6%	-4
CC1(C(=O)NS(=O)(=O)c2ccccc2Cl)CCN1C(=O)c1ccco1 (centres undefined)	-1.4%	-6
Cc1cccnc1C(NC(=O)C1CCN(Cc2ccc(Oc3ccccc3)cc2)CC1)c1ccc(F)cc1 (centres undefined)	-0.5%	-14
